Screens from PubChem BioAssay.
MgrA DNA FP: modulators of Staphylococcus aureus MgrA DNA binding | 0.13% of 84,000 active | fluorescence polarization | inhibition, %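 (about 10 µg/mL by stock and volumes)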 | AID 602314;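 active = above 50% in either of two replicates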;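 also: 0% = protein plus DNA without compound and 100% = DNA alone without protein; higher means less MgrA bound to DNA so lower polarization; one replicate is shown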
Sa helicase inh: blocks Staphylococcus aureus DNA helicase. 0.05% of 120,000 active. purified S. aureus helicase, fluorescence unwinding assay; about half of the hits fall short of the stated cut. inhibition, %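 (tested at about 80 µM)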. AID 485395;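 active = both duplicates at 50% or more, or one of them with a favoured structure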;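 also: 0% = mean of negative control wells and 100% = mean of positive control wells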
* = called active by the depositor; x = no result given; & = joins results of further samples. This is a subset, so the mix of outcomes need not match the whole.

MgrA DNA FP	Sa helicase inh	Compound
x	9	Cc1ccc(N2C(=O)C(Cc3ccccc3)N=C2N2CCC(C)CC2)cc1 (stereo unspecified)
-0.4	5	CSc1nc2ccc(NC(=O)CCc3ccccc3)cc2s1
x	16	O=C(CCc1nc(-c2cccs2)no1)Nc1cnc2ccccc2c1
0.5	x	O=C(NCC(O)c1ccccc1)Nc1ccccc1 (stereo unspecified)
0.8	20	Cn1c(C(=O)Nc2cccc(C(F)(F)F)c2)cc2c(=O)oc3ccccc3c21
x	-4	CCOC(=O)C1CCN(C(=O)c2cn(-c3ccccc3)nc2-c2cccnc2)CC1
3.0	5	CCOC(=O)c1ccc(CC2S/C(=N/N=C/c3ccc(O)cc3)NC2=O)cc1 (stereo unspecified)
x	17	CCOc1ccc(C2C(C(=O)Nc3ccccn3)c3ccccc3C(=O)N2CCN2CCOCC2)cc1 (stereo unspecified)
x	4	N#CCn1c(COC(=O)c2cn(-c3ccccc3)nc2-c2ccc(F)cc2)nc2ccccc2c1=O
-4.2	9	COc1ccc2cc(S(=O)(=O)c3ccc(C)c(C)c3)c(=Nc3ccc4c(c3)OCCO4)oc2c1
-0.2	2	c1ccc(-c2nn3c(CN4CCCC4)nnc3c3ccccc23)cc1
4.3	8	COc1ccc(CCNC(=O)NC(C)(C)C)cc1
-8.4	x	COC(=O)c1ccc(O)c(CSc2ccccn2)c1
-4.3	-1	CCOCCC(=O)N1CCN(c2ccccc2)CC1
0.7	6	CCc1ccc(NCc2c(C(=O)O)cnn2-c2ccccc2)cc1
4.0	-2	O=C(Cn1ccccc1=S)c1ccccc1
0.1	-16	COc1ccc(S(=O)(=O)Nc2cc(C)cc(C)c2)cc1
0.6	16	CCn1cc(C(=O)NCc2cccnc2)c2cc(OC)c(OC)cc2c1=O
-0.4	x	CC(C)(C)C(=O)Nc1ccc(F)cc1
-8.0	x	CSC(=CC(=O)c1ccncc1)SC
x	3	CCOC(=O)c1nn(-c2ccccc2)c(C(=O)OCC)c1NC(=O)C1CCCCC1
x	-7	CC1(C)Cc2cccc(OCCNC(=O)c3cnccn3)c2O1
x	8	CN(C)S(=O)(=O)c1ccc(C(=O)OCc2ccccc2F)cc1
1.4	2	O=C(Nc1ccccc1)c1c[nH]c(=O)n(-c2ccccc2)c1=O
x	3	C/C(=N\OCc1ccc(C#N)cc1)c1ccc2c(c1)OCCO2
1.9	-11	S=C1NCN(Cc2ccccc2)CN1CC1CCCO1 (stereo unspecified)
x	7	O=C(O)CC(Cc1ccccc1)c1ccc2c(c1)OCO2 (stereo unspecified)
-0.3	x	NNC(=S)NCCc1ccccc1
x	9	O=S(=O)(c1cccs1)N1CN(Cc2ccccc2)c2nc3ccccc3nc21
0.6	-18	COc1ccccc1NC(=O)c1cccc(N2C(=O)C3CC=CCC3C2=O)c1 (stereo unspecified)

Of the compounds above, these have four or more nitrogen atoms.
MgrA DNA FP	Sa helicase inh	Compound
x	16	O=C(CCc1nc(-c2cccs2)no1)Nc1cnc2ccccc2c1
x	-4	CCOC(=O)C1CCN(C(=O)c2cn(-c3ccccc3)nc2-c2cccnc2)CC1
x	17	CCOc1ccc(C2C(C(=O)Nc3ccccn3)c3ccccc3C(=O)N2CCN2CCOCC2)cc1 (stereo unspecified)
x	4	N#CCn1c(COC(=O)c2cn(-c3ccccc3)nc2-c2ccc(F)cc2)nc2ccccc2c1=O
-0.2	2	c1ccc(-c2nn3c(CN4CCCC4)nnc3c3ccccc23)cc1
x	9	O=S(=O)(c1cccs1)N1CN(Cc2ccccc2)c2nc3ccccc3nc21

Carrying on:
MgrA DNA FP	Sa helicase inh	Compound
0.1	x	CCN(CC)c1ncnc2c1cnn2C
19	9	Oc1ccc2ccccc2c1CN1CCCC1
x	-6	COc1ccc(N=Cc2c(N3CCCC3)nc3c(C)cccn3c2=O)cc1
x	-9	CC(C)NC(=S)NN=C1CCCCC1
x	6	COc1cc(CNS(=O)(=O)c2ccc(CN3C(=O)c4ccccc4C3=O)cc2)cc(OC)c1OC
-5.9	5	C=CCc1cc(OC)cc(CC=C)c1O
x	-8	Cc1ccc2nc(-c3cc(Cl)ccc3NC(=O)CCC(=O)O)c(=O)[nH]c2c1
-2.2	x	Cn1ncc(C(=O)NC2CCCCC2)c1-n1cccc1
1.5	x	Cc1cc(N2CCN(CC(=O)N(C)c3ccccc3)CC2)c2ccccc2n1
x	-6	O=C(O)CC1(CC(=O)Nc2ccc(-c3cn4c(n3)SCC4)cc2)CCCCC1

Retrieved one by one from the list above:
MgrA DNA FP	Sa helicase inh	Compound
0.1	x	CCN(CC)c1ncnc2c1cnn2C
-2.2	x	Cn1ncc(C(=O)NC2CCCCC2)c1-n1cccc1
19	9	Oc1ccc2ccccc2c1CN1CCCC1
x	-9	CC(C)NC(=S)NN=C1CCCCC1
-5.9	5	C=CCc1cc(OC)cc(CC=C)c1O
x	-6	COc1ccc(N=Cc2c(N3CCCC3)nc3c(C)cccn3c2=O)cc1

(further entries)
MgrA DNA FP	Sa helicase inh	Compound
-1.8	2	O=C1Nc2ccccc2Oc2ccc(S(=O)(=O)N3CCOCC3)cc21
x	-5	COC(=O)c1cc(-c2ccco2)nc2c1cnn2Cc1ccc2c(c1)OCO2
1.8	x	C=CCn1c(SCC(=O)N2CCCCC2)nc2sc3c(c2c1=O)CCCC3
1.5	x	O=[N+]([O-])c1ccc(N2CCCN(C(=S)Nc3ccc(Cl)cc3Cl)CC2)nc1
x	-31	Cc1cccc(N2CCN(C(=O)CCCN3C(=O)c4ccccc4Sc4ncccc43)CC2)c1C
x	-6	C(=N\NC1=NCCCCC1)/c1ccccc1
0.7	3	CCCNC(=O)CSc1nc(-c2cccs2)cc(C(F)(F)F)n1
-6.0	x	O=C(O)CNC(=O)Cc1ccccc1
0.8	4	CC(=O)Nc1cc2nc(N)sc2cc1NC(C)=O
x	-14	Nc1nc(CSc2ncccn2)nc(Nc2ccccc2)n1
5.1	8	C=CCN(c1ccc(C(=O)N2CCCC2)cc1)S(C)(=O)=O
x	-5	CC1=NN(c2ccccc2)C(=O)C1=C1SCCS1
x	-3	O=C(CCCc1nc2ccccc2s1)Oc1ccc2c(c1)OCO2
3.9	x	CCN1CN=C(SCc2cccc(C#N)c2)NC1
0.7	x	O=C1C(c2ccccc2)=C(Nc2cc(C(F)(F)F)cc(C(F)(F)F)c2)c2ccccc21
x	18	COc1ccc(C(=O)CSc2nc3ccccc3[nH]2)c(OC)c1
-1.6	x	COc1cccc(OC)c1SC
x	-19	CCOC(=O)N/N=C1/c2ccccc2C2(O)NC(=O)NC12O (stereo unspecified)
3.1	16	CC(C)CN(CC(C)C)C(=O)c1cc2c(=O)n3ccccc3nc2s1
2.4	x	N#Cc1c(N)nc2sc(C(N)=O)c(N)c2c1-c1ccc(Br)cc1
x	-7	O=C(OCN1C(=O)c2ccccc2C1=O)c1cccnc1SC(F)F
6.9	x	Cc1ccc(/C(O)=C2\C(=O)C(=O)N3c4ccccc4OC(=O)C23O)cc1 (stereo unspecified)
-0.2	16	O=C(c1cc2ccccn2n1)N1CCN(c2ccc(Cl)nn2)CC1
3.1	1	CC1=NN2C(=N)/C(=C/c3cn(CCOc4c(C)cccc4C)c4ccccc34)C(=O)N=C2S1
x	-3	Cc1ccc(S(=O)(=O)N(C)S(=O)(=O)c2cccc(C(F)(F)F)c2)cc1
-2.1	x	Cc1oc(S(=O)(=O)N2CCCC2)cc1-c1nc(-c2ccc(F)cc2)no1
x	-15	CCOC(=O)c1oc2cc(O)ccc2c(=O)c1-c1ccc2c(c1)OCCO2
x	10	FC(F)(F)c1cccc(-c2nnc(-c3ccc(Cl)cc3)o2)c1
14	-17	O=C(CCCN1C(=O)S/C(=C\C=C\c2ccccc2)C1=O)Nc1ccc(C(=O)O)cc1
0.9	12	COC(=O)c1cc(NC(=O)c2cccc(Cl)c2)cc(C(=O)OC)c1
x	-12	COC(=O)c1ccc2nc(NC(=O)C3CC3)sc2c1
-0.5	10	CC(C)NC(=O)CCc1nnc2n(Cc3ccccc3)c(=O)c3ccccc3n12
-1.6	x	CC1NC(C(=O)O)Cc2c1[nH]c1ccccc21 (stereo unspecified)
x	18	COC(=O)c1ccc(Oc2ccc(Cl)cc2)nc1
-1.0	6	O=S(=O)(c1ccccc1)N1C2C=CC(C2)C1(C(F)(F)F)C(F)(F)F (stereo unspecified)
x	-11	O=C(Cc1coc2ccc3ccccc3c12)OCC(=O)c1cc2c3c(c1)CC(=O)N3CCC2
x	12	O=C1CCCN1C(=O)CSc1nc(-c2ccccc2)c(-c2ccccc2)o1
x	-2	c1coc(CNc2nc(C34CC5CC(CC(C5)C3)C4)cs2)c1
-1.4	x	O=C(Nc1ccc(CN2CCS(=O)(=O)CC2)cc1)c1ccco1
-1.5	6	COc1ccc(C2C(C(=O)N3CCOCC3)CCC(=O)N2c2ccc(OC)cc2)cc1 (stereo unspecified)
x	7	CCCC(=O)Nc1cc(=O)n(C)c(=O)n1C
x	8	CC(=O)N1CCc2c(C)cc(Cl)cc21
-0.8	8	O=C(COC(=O)c1ccc2ccccc2n1)Nc1ccccc1-c1ccccc1
x	7	O=c1[nH]c2ccc(S(=O)(=O)N(CCc3ccccc3)Cc3ccccc3)cc2[nH]c1=O
1.3	x	O=C(N1CC(Oc2ccc(Cl)cc2)C1)N1CC(Oc2ccc(Cl)cc2)C1
-9.7	0	CCC(Oc1ccccc1)C(=O)Nc1nccs1 (stereo unspecified)
-4.2	12	COc1ccc(C2=Nn3cnnc3SC2)cc1OC
-0.9	2	CCc1c(C)nc2n(c1=O)C(CS(=O)(=O)c1ccc3ccccc3c1)CS2 (stereo unspecified)
1.8	22	COc1nc(Nc2ccc(OC(F)(F)F)cc2)nc(NC2CC2)n1
-4.0	6	O=C(CCCN1C(=O)S/C(=C/c2ccccc2)C1=S)N1CCOCC1

Next part
MgrA DNA FP	Sa helicase inh	Compound
x	4	Cc1c(C(=O)N2CCCC2)sc2nc(-c3ccccc3)cn12
x	2	CC(OC(=O)c1ccccc1NCc1ccco1)C(=O)Nc1ccc2c(c1)OCO2 (stereo unspecified)
x	-12	O=C(Cn1nnc(-c2cccs2)n1)N1CCCC1c1ccc2c(c1)OCCCO2 (stereo unspecified)
0.8	12	CCOC(=O)CSC1=C(C#N)C(c2ccc(Cl)cc2)C(C(=O)OC)C(=O)N1 (stereo unspecified)
-1.4	x	CCOC(=O)c1c(NC(=O)c2ccc(Cl)c(Cl)c2)sc(C(=O)Nc2ccccc2F)c1C
0.5	x	COc1cc(/C=C2\SC(=S)N(NC(=O)c3ccccc3Br)C2=O)cc(OC)c1OC
-3.7	-13	CC(C)c1ccccc1NN
x	13	COc1ccc(CCN2CCCn3c2nc2c3c(=O)n(CC(N)=O)c(=O)n2C)cc1OC
4.3	1	C=CCOc1ccc(CNCc2ccco2)cc1OC
0.6	10	CC1=CC(C)(C)N(C(C)C)C(=O)N1c1ccc(C)cc1
x	16	CCOC(=O)C1CCCN(c2c(C(=O)c3ccccc3)cnc3ccccc23)C1 (stereo unspecified)
x	4	CN(CC(=O)Nc1ccc(OC(F)(F)F)cc1)C(=O)c1ccc(N2CCCC2=O)cc1
-4.8	2	O=C(O)c1ccc(S(=O)(=O)c2ccc3c(c2)C(=O)N(C2CCCCC2)C3=O)cc1
0.7	11	C=CCn1c2ccccc2n2cc(-c3ccccc3)nc12
x	1	COc1cccc(/C=C2\SC(=S)N(CCCC(=O)Nc3ccccc3C(F)(F)F)C2=O)c1
x	5	COc1nc2c(c(=O)n(C)c(=O)n2C)n1C
x	1	CNc1sc(C(=O)c2cccs2)c(N)c1-c1nc2ccccc2s1
x	15	O=C1CCC/C(=N/NC(=O)c2cc(NS(=O)(=O)c3cccs3)cc(NS(=O)(=O)c3cccs3)c2)C1
x	-14	Nc1nc(N)nc(SCC(=O)N(C2=CCCCC2)C2CC2)n1
0.7	6	CC1CCC(C(C)C)C(=O)/C1=C\c1ccc(NC(=O)CCC(=O)O)cc1 (stereo unspecified)
-0.3	x	Cc1ccc(N2C(=O)CC(Sc3nc4c(cc3C#N)CCC4)C2=O)cc1 (stereo unspecified)
-3.9	x	Cc1nc([N+](=O)[O-])cn1C(C)C
x	-7	CC(C)C1OC(N)=NC1=O (stereo unspecified)
4.2	x	NS(=O)(=O)c1cc(C(=O)O)cc(N2CCCC2)c1Oc1ccccc1
2.8	-4	Cc1ccc(SCCNS(C)(=O)=O)cc1
-3.2	4	N#CC1CCN(Cc2ccccc2)CC1
4.4&1.6	x	COc1cc(NS(=O)(=O)c2ccc(N)cc2)nc(OC)n1
x	-4	Cc1cccc(Cn2c(CO)nc3ccccc32)c1
-4.3	x	OC(CNC1CCN(Cc2ccccc2)CC1)COc1ccc2c(c1)OCO2 (stereo unspecified)
3.8	0	CC(C)CC(=O)NC(=S)Nc1ccc2oc(-c3ccccc3)nc2c1
0.4	15	O=C(O)CC1(CC(=O)Nc2cccc(C(F)(F)F)c2)CCCC1
-0.7	4	CC1=NN(C(C)(C)C#N)C(c2ccccc2)C1 (stereo unspecified)
x	2	CC1(C)O[C@H]2O[C@H](C(O)COC(=O)c3ccccc3)[C@H](OC(=O)c3ccccc3)[C@H]2O1 (stereo partly specified)
-2.4	x	CC(=Nc1cccc(O)c1)c1sc2ccccc2c1O
2.0	x	O=C1NC(=S)NC(=O)C1=Cc1c(F)cccc1Cl
x	19	CC(=O)Oc1ccc2c(-c3ccccc3)cc(=O)oc2c1C
